Assay outcomes from PubChem.
RVFV N-RNA FP: inhibitors of Rift Valley Fever Virus nucleocapsid-RNA interaction | 0.1% of 20,000 active | % bound, % (test concentration not listed) | RVFV N-RNA binding, fluorescence polarization; stronger effect = lower value | P21700;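 active = between 0 and 58% in either replicate with normal brightness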;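 note: 100 nL library stock added to about 12 µL; 100% = protein and probe without compound and 0% = probe alone; numbers are from one replicate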
Target sequence (P21700 whole entry, looked up): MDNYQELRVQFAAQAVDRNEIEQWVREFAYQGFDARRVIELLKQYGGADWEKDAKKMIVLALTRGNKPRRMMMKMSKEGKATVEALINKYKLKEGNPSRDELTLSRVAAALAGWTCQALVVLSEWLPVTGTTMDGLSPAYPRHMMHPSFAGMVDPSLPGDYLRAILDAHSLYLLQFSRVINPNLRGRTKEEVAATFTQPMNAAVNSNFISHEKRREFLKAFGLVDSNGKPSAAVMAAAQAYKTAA
* marks the source's active call; other numbers are inactive results; & = joins results of further samples. An excerpt; the hit share may differ from the screen's.

Preview, 7 compounds:
#	structure	RVFV N-RNA FP
1	COc1ccc2c(c1)C1(Nc3ccccc3-c3nc4ccccc4n31)C(=O)N2C (configuration not stated)	96.0
2	CCOC(=O)c1c(C)csc1NC(=O)CC(=O)C(F)(F)F	96.2
3	Cc1ccc(NC(C#N)c2c(C)[nH]c(=O)[nH]c2=O)cc1 (configuration not stated)	95.3
4	Cc1ccc(C)c(C(=O)CSc2nnc(C)s2)c1	97.5
5	OC(C#Cc1ccccc1)C#Cc1ccccc1	108.6
6	Cn1cc(/C=N/NC(=O)CC#N)c2ccccc21	88.7
7	O=C1CC(N2CCSCC2)C(=O)N1CCc1ccccc1 (configuration not stated)	108.5

This part in full, repeating the preview:
#	structure	RVFV N-RNA FP
1	COc1ccc2c(c1)C1(Nc3ccccc3-c3nc4ccccc4n31)C(=O)N2C (configuration not stated)	96.0
2	CCOC(=O)c1c(C)csc1NC(=O)CC(=O)C(F)(F)F	96.2
3	Cc1ccc(NC(C#N)c2c(C)[nH]c(=O)[nH]c2=O)cc1 (configuration not stated)	95.3
4	Cc1ccc(C)c(C(=O)CSc2nnc(C)s2)c1	97.5
5	OC(C#Cc1ccccc1)C#Cc1ccccc1	108.6
6	Cn1cc(/C=N/NC(=O)CC#N)c2ccccc21	88.7
7	O=C1CC(N2CCSCC2)C(=O)N1CCc1ccccc1 (configuration not stated)	108.5
8	Cn1c(Cc2ccccc2)n[nH]c1=S	84.1
9	CC(C)C(=O)Nc1ccc(NC(=O)C(C)(C)C)cc1	89.9
10	N#Cc1cnc(N2CCN(c3ccccc3)CC2)nc1N	88.2
11	Cc1cccc(NC(=O)CC(NCc2ccco2)C(=O)O)c1C (configuration not stated)	96.7
12	COc1cc(/C=N\n2c(C)n[nH]c2=S)cc(OC)c1OC	100.7
13	CC(Oc1ccccc1)C(=O)N1CCN(c2ccc(N3CCCCC3)nn2)CC1 (configuration not stated)	96.7
14	CCOC(=O)C(Cc1ccccc1Cl)Sc1nnc(N)s1 (configuration not stated)	95.9
15	COC(=O)c1sccc1-c1ccc(/C=N/OCc2cc(F)cc3c2OCOC3)o1	92.4
16	CSc1nnc(-c2ccccc2)n1N	97.7
17	Oc1ccc(Br)cc1CNCc1ccccc1	98.9
18	O=C(Nc1ccc2[nH]c(=O)[nH]c2c1)c1cc2ccccc2o1	98.1
19	COc1ccc(OC)c(C(c2sc3nc(C)nn3c2O)N(C)Cc2ccccc2)c1 (configuration not stated)	102.4
20	CC(C)C(NS(=O)(=O)c1ccc(Br)s1)C(C)C	102.3
21	CC(C(=O)O)c1ccc(-c2ccccc2)c(F)c1 (configuration not stated)	91.8&106.1&95.4
22	CCCCC(=O)OC1(C(=O)CO)CCC2C3CCC4=CC(=O)CCC4(C)C3C(O)CC21C (configuration not stated)	102.0
23	CN(c1cnn(-c2ccc(Cl)cc2Cl)c(=O)c1Cl)N1CC(C)(C)C1=O	78.3
24	COc1ccc(S(=O)(=O)Nc2cccc(-c3nnco3)c2)cc1OC	102.6
25	N#C/C(=N\Nc1ccc(F)cc1)C(N)=S	94.5
26	CC(C)(C)OC(=O)NC1[C@H]2CNC[C@@H]12 (some centres not stated)	92.1
27	CC1CC(=O)N(CC(=O)N2CCCCC2)c2ccccc2S1 (configuration not stated)	102.3
28	CC12CCC(O)CC1=CCC1C2CCC2(C)/C(=N/N)CCC12 (configuration not stated)	94.0
29	O=C(/C=C\c1ccco1)Nc1ccc(N2CCN(C(=O)c3ccccc3)CC2)cc1	92.9
30	CCNC(=O)Nc1ccccc1C(=O)OC	92.6
31	Clc1ccc(N2CCN(C3=Cc4ccccc4CC3)CC2)cc1Cl	83.5
32	NC(=O)c1ccc2nc(-c3ccc(Oc4ccc(Cl)cc4)cc3)[nH]c2c1	103.9
33	Cc1ccc(NC(=S)NCCCO)c(C)c1	98.1
34	Cc1c(NC(=O)C23CC4CC(C)(CC(C)(C4)C2)C3)c(=O)n(-c2ccccc2)n1C	95.8
35	CC1CN(C(=O)CCC2CCCCC2)CC(C)O1 (configuration not stated)	96.4
36	CCOC(=O)c1nc(C)sc1-c1ccnn1C(=O)c1ccc(OC)cc1	92.9
37	Cc1cc(/C(N)=N/OC(=O)c2snnc2C)no1	90.6
38	C#C[C@]1(O)CCC2C3CCc4cc(OC5CCCC5)ccc4C3CC[C@@]21C (some centres not stated)	100.7
39	Nc1[nH]c(=S)ncc1S(=O)(=O)c1ccccc1	88.5
40	CSc1nnc(C)c(=O)n1COC(=O)C1CC(=O)N(c2ccc(C)cc2)C1 (configuration not stated)	89.3
41	C[C@@](Cc1ccc(O)c(O)c1)(NN)C(=O)O	96.7
42	O=C1SCN(Cc2ccccc2)CN1Cc1ccccc1	99.2
43	Cn1c(=O)c(C(=O)Nc2cccc(O)c2)c(O)c2ccccc21	96.5
44	C[N+](C)(C)CCOC(N)=O	90.2&95.8
45	CCOc1cccc2cc(C(=O)N3CCN(C/C=C/c4ccccc4)CC3)c(=O)oc12	96.9
46	C(=C\c1ccccc1)/CN1CCN(Cc2c[nH]c3ccccc23)CC1	106.5
47	CC(NC(=O)Nc1ccccc1)C(c1ccccc1)N1CCN(C)CC1 (configuration not stated)	94.1
48	O=C(c1ccco1)N1CCN(c2cnn(-c3ccccc3)c(=O)c2Cl)CC1	94.5
49	O=S(=O)(NCc1cn2ccsc2n1)c1ccc2c(c1)OCCO2	96.5
50	CN1CCN(CC(=O)N2c3ccccc3C(=O)Nc3cccnc32)CC1	100.2&111.4
51	CC(NC(=O)c1ccccc1)c1nnc(SCC(=O)c2ccccc2)n1C (configuration not stated)	106.6
52	COc1ccccc1NC(=O)CC(O)(C(F)(F)F)C(F)(F)F	99.7
53	S=C(NCc1ccco1)N1CCOCC1	90.5
54	C/C(=N\NS(=O)(=O)c1ccc(Br)cc1)c1cccs1	88.7
55	CCNC(=S)N1CCN(S(=O)(=O)c2ccc(Cl)cc2)CC1	93.8
56	CC1(C)C[C@H]1C(=O)N/C(=C\CCCCSC[C@@H](N)C(=O)O)C(=O)O	96.7
57	CSc1nnc2c3cc(C)ccc3n(C)c2n1	91.4
58	Cc1cc(C)n(CC(O)CN(c2ccccc2)S(=O)(=O)c2ccccc2)n1 (configuration not stated)	116.8
59	CC(c1cc2ccccc2s1)N(O)C(N)=O (configuration not stated)	95.3&97.4
60	Cc1ccc(S(=O)(=O)C(C)C(=O)c2ccc3c(c2)OCCO3)cc1 (configuration not stated)	109.3

Carrying on.
#	structure	RVFV N-RNA FP
61	O=C1CCc2ccc(OCCCCN3CCN(c4cccc(Cl)c4Cl)CC3)cc2N1	97.3&94.5
62	COc1ccccc1NC(=O)c1ccc(OCC(=O)O)cc1	95.4
63	Cc1ccc(F)c(NC(=O)C(F)(F)C(F)F)c1	101.5
64	C=CCN1C(=O)C2(C(C(=O)OCC)=C(N)Oc3ccccc32)c2c1c1ccccc1oc2=O (configuration not stated)	93.9
65	NC(N)=N/N=C1\CCc2ccccc21	86.7
66	Nc1ncnc2c1ncn2[C@@H]1O[C@H](CO)[C@H](O)C1O (some centres not stated)	93.8
67	CC(C)NCC(O)c1ccc(NS(C)(=O)=O)cc1 (configuration not stated)	99.8&97.0&100.1
68	O=S(=O)(O)CCSSCCS(=O)(=O)O	101.2
69	Cn1c(=O)c2c(nc(N3CCN(C(=O)c4ccco4)CC3)n2CCSc2ncccn2)n(C)c1=O	90.9
70	CCCCCCCCCCCCCCCC(=O)O[C@@H]1[C@@H](O)[C@@H](O)[C@@H](C(NC(=O)[C@@H]2C[C@@H](CCC)CN2C)C(C)Cl)O[C@@H]1SC (some centres not stated)	106.0
71	CC1CCc2cc(F)ccc2N1S(=O)(=O)c1c(N)n(C)c(=O)n(C)c1=O (configuration not stated)	94.3
72	COC(=O)c1cc(OC)c(OC)cc1N1C(=O)CCC1=O	81.2
73	COn1c(C)c(C)c2c3no[n+]([O-])c3ccc21	85.5
74	C#CC(CC)(CC)NC(=O)c1c(C)noc1C	102.0
75	C=CCN1C(=O)S/C(=C/c2ccc(C(=O)O)cc2)C1=O	95.8
76	C/C(=N\N1C(=O)CN(Cc2ccccc2)C1c1ccco1)c1ccc(Cl)cc1 (configuration not stated)	89.1
77	NS(=O)(=O)c1ccc(NC(=O)C2=COCCO2)cc1	103.9
78	N/C(Cc1ccc(Cl)cc1Cl)=N\OC(=O)c1ccc(Br)o1	88.0
79	CCc1ccc(NC(=O)CC(C(=O)O)N2CCCCC2)cc1 (configuration not stated)	100.6
80	CC(C)N1C(=O)S/C(=C\c2ccc(-c3cccc(C(F)(F)F)c3)o2)C1=O	106.3
81	COC(=O)C12CC3CC(CC(NC(C)=O)(C3)C1)C2	91.1
82	Cn1c(=O)c(C(=O)NCc2cccnc2)cc2cccnc21	93.4
83	N=C1SCC(=O)N1/N=C/c1ccccc1	89.4
84	O=S(=O)(Cc1noc(-c2cc(Cl)cc(Cl)c2)n1)c1ccc(Cl)cc1	94.9
85	COCC(=O)Oc1c(Sc2c(F)c(F)c(F)c(F)c2F)c(C)nn1C(C)(C)C	91.3
86	CN1CCN(C(=O)c2ccccc2NC(=O)c2ccc(Cl)cc2)CC1	100.4
87	COC(=O)CC1SC(=O)N(c2ccc(C)cc2)C1=O (configuration not stated)	98.3
88	O=C1N/C(=N\O)S/C1=C/c1cccnc1	96.5
89	CCN(Cc1ccncc1)S(=O)(=O)c1ccc(Cl)cc1	92.9
90	N#Cc1c(=N)nc2oc3ccc(Cl)cc3c3c(C#N)c(N)[nH]c1c23	87.1
91	CN1C(=O)C(=Cc2cccn2-c2ccccc2)C(=O)N(C)C1=O	95.7
92	O=c1c(/C=N/N2CCOCC2)c(-c2ccccc2)[nH]n1-c1nc2ccccc2s1	93.0
93	CCN(C#N)c1nc(C)cc(OC)n1	94.2
94	S=C(NCC1CCCO1)N/N=C/c1cccnc1 (configuration not stated)	93.8
95	NNC(=O)c1n[nH]c2c1CCC2	92.4
96	Oc1ccc2c3c1OC1C(O)CC[C@@]4(O)[C@@H](C2)N(CC2CCC2)CC[C@]314 (some centres not stated)	107.9
97	COc1cccc(-c2nc3ccccc3s2)c1	96.4
98	CC(N)C(=O)OC(C)(C)Cc1ccc(Cl)cc1 (configuration not stated)	94.7
99	O=c1cc(CSc2nnnn2-c2ccccc2)[nH]c2nc3ccccc3n12	104.0
100	COC(=O)C(Cc1ccc(O)cc1)NC(=O)c1ccc(OC)c(OC)c1 (configuration not stated)	96.4
101	C[C@H]1C2Cc3ccc(O)cc3C1(C)CCN2CC1CC1 (some centres not stated)	94.2
102	COC(=O)NCc1cc(OC)c(OC)c(OC)c1	97.1
103	O=C(c1cccc(C(F)(F)F)c1)N1CCCCC1	91.3
104	CCCCn1c(CCCNC=O)nc2ccccc21	95.1
105	CCOc1ccc(S(=O)(=O)NC(C)C(=O)NC2CCCC2)cc1 (configuration not stated)	97.4
106	CCC(=O)C1(Sc2nc3ccccc3[nH]2)CC(C)(C)OC1=O (configuration not stated)	92.8
107	c1ccc(-c2cccs2)nc1	97.3
108	S=C(NCCc1ccncc1)Nc1ccccc1	97.2
109	CC(=O)Nc1ccc(N/C=C2/CCCCC2=O)cc1	96.0
110	COc1ccc(OC)c(NC(=O)CSc2cn(C)c3ccccc23)c1	93.3
111	CCCCC(=O)Nc1cccc2c1C(=O)N(c1ccccc1)C2=O	104.0
112	CC(C)[C@H](NC(=O)OCc1ccccc1)C(=O)N[C@H](C=O)Cc1ccccc1	105.1
113	COc1ccc(NC(=O)Cn2ccc3c(OC)cccc3c2=O)cc1	90.5
114	Cc1ccc(C=Nc2ccccc2C(N)=O)o1	89.0
115	Cc1cc(C)c(C#N)c(SC2CCc3ccccc3C2=O)n1 (configuration not stated)	98.8
116	COc1cccc(OC)c1C(=O)NC(=O)Nc1c(C)cccc1C	98.6
117	C/C(CC1(O)/C(=N/O)CCc2nonc21)=N\O (configuration not stated)	94.5
118	O=C(Nc1ccncc1)c1cc2cccnc2n(Cc2ccccc2)c1=O	92.2
119	O=S1(=O)CCC2CC=CCC21 (configuration not stated)	97.5
120	CC(C)(C)NC(=O)/C=C/c1ccc(Cl)cc1	90.8

(continued)
#	structure	RVFV N-RNA FP
121	O=C(CSCc1ccccc1Cl)NC1CC1	90.2
122	CCN(CC)c1ccc(NC(=O)Nc2ccc(Cl)cc2)cc1	97.8
123	CCc1c(O)nc(SC(C)C(=O)Nc2ccc(S(N)(=O)=O)cc2)n(-c2ccccc2)c1=O (configuration not stated)	96.1
124	CC(C)(C)C(=O)CS(=O)(=O)c1ccc(Cl)cc1	106.2
125	Cc1cccc2c(=O)cc(C)n(CC(=O)N3CCCCC3)c12	104.6
126	Cc1sc2c(c1C)c(=O)nc1n2C(CSc2nc3sc4c(c3c(=O)[nH]2)CCCC4)CS1 (configuration not stated)	94.4
127	Cc1ccc(C(C)(C)CCN2CCCN(C)CC2)o1	90.7
128	Cc1ccc(Cl)cc1NC(=O)c1ccc(Br)o1	104.8
129	O=C(Cc1ccccc1)NC1CCN(C(=O)C2CCCCC2)CC1	92.7
130	Nc1[nH]nc2nc3ccccc3nc12	106.2
131	O=CN1CCN(C(=O)COc2ccc(Br)cc2)CC1	96.9
132	Cc1cc(N(C)S(=O)(=O)c2ccc(N)cc2)nc(C)n1	110.8
133	Cc1cc(C)c(C#N)c(N2CCCC2)n1	110.8
134	CCCCc1ccc(NC(=O)/C=C2\SC(=O)NC2=O)cc1	95.1

In the list so far, these contain a CF3 group.
#	structure	RVFV N-RNA FP
2	CCOC(=O)c1c(C)csc1NC(=O)CC(=O)C(F)(F)F	96.2
52	COc1ccccc1NC(=O)CC(O)(C(F)(F)F)C(F)(F)F	99.7
80	CC(C)N1C(=O)S/C(=C\c2ccc(-c3cccc(C(F)(F)F)c3)o2)C1=O	106.3
103	O=C(c1cccc(C(F)(F)F)c1)N1CCCCC1	91.3

Nothing new here: 3 of the compounds above.
#	structure	RVFV N-RNA FP
121	O=C(CSCc1ccccc1Cl)NC1CC1	90.2
122	CCN(CC)c1ccc(NC(=O)Nc2ccc(Cl)cc2)cc1	97.8
123	CCc1c(O)nc(SC(C)C(=O)Nc2ccc(S(N)(=O)=O)cc2)n(-c2ccccc2)c1=O (configuration not stated)	96.1
